Source: PubChem
Marburg entry inh = blocks Marburg virus binding to or entry into cells; Marburg virus pseudotyped entry inhibition, cell reporter; control for the full effect not named in the record; about a third of the inactives were read at about 46 µM; Potency, µM (top dose mostly 37.8 µM), for the others: top-dose activity change, negative = inhibition, usual class: inhibitors; 1.8% of 300,000 active; AID 540276; active = well fitted inhibition curve with a large enough effect; inconclusive = small, poorly fitted or top-dose-only effect, or effect the other way; inactive = flat fitted curve, though single readings scatter; tested in HEK293 cells; about a fifth of its hits are not listed in these tables; also: % is scaled to controls: 0 for no effect and ±100 for the full control effect; luciferase read-out
RE007 growth inh = less growth of the S. pombe RE007 Vpr strain; Potency, µM (top dose mostly 92.2 µM), inactives show at the top dose activity change, negative = less growth; AID 651644; S. pombe RE007 Vpr strain, BacTiter-Glo ATP luminescence, 24 h; control for the full effect not named in the record; 0.21% of 360,000 active; active = well fitted falling curve with a large enough effect; inconclusive = small, poorly fitted or top-dose-only effect; inactive = no such curve, though single readings can be large or run the other way;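 also: % is scaled to controls: 0 for no effect and ±100 for the full control effect; nearly all actives have a fitted effect of over 50% in size; the assay follows cell death caused by Vpr and the record does not say whether a fall means rescue or toxicity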
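Fission yeast RE007 carrying one integrated HIV-1 vpr copy, seeded at OD 0.01 in PMG+AL medium with 23 nL pinned compound. Grown 24 h at 30 degrees; viability read by BacTiter-Glo luminescence after 5 min.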
Lassa entry inh = Lassa virus entry inhibition. AID 540256. Lassa virus pseudotype entry inhibition, cell reporter; control for the full effect not named in the record. 1.2% of 300,000 active. Potency, µM (top dose mostly 37.9 µM), for the others: at the highest dose activity change, negative = inhibition, most hits filed as inhibitors; active means well fitted inhibition curve with a large enough effect; inconclusive means small, poorly fitted or top-dose-only effect, or effect the other way; inactive means flat fitted curve, though single readings scatter; tested in HEK293 cells; also: % is scaled to controls: 0 for no effect and ±100 for the full control effect; nearly all actives have a fitted effect of over 50% in size; luciferase read-out
SARS PLpro yeast = inhibitors of SARS-CoV papain-like protease in yeast; S. cerevisiae expressing SARS-CoV PLpro, growth rescue; control for the full effect not named in the record; Potency, µM (doses to about 32.9 µM), inactives show top-dose activity, positive = growth rescue; 0.19% of 330,000 active; active means well fitted rising curve with a large enough effect; inconclusive means small, poorly fitted or top-dose-only effect; inactive means no such curve, though single readings can be large or run the other way; also: 0% is about no effect; nearly all actives have a fitted effect of over 55% in size; growth read by luminescence after 48 h
StopGo reporter = FMDV 2A StopGo reporter, luciferase signal. AID 1159524. Potency, µM (series often up to 57.9 µM), for the others: top-dose signal change, negative = less light. 1.2% of 410,000 active. human cells with a luciferase reporter of 2A StopGo recoding; control for the full effect not named in the record; active = well fitted falling curve with a large enough effect; inconclusive = small, poorly fitted or top-dose-only effect; inactive = no such curve, though single readings can be large or run the other way; tested in HEK293T cells; also: % is scaled to controls: 0 for no effect and ±100 for the full control effect; nearly all actives have a fitted effect of over 45% in size; luciferase light after 4 h
Cruzain noTriton = cruzain (T. cruzi) inhibition without detergent | 2.3% of 200,000 active | AID 1476 | P25779 | purified cruzain, Z-FR-AMC fluorescence, no detergent | Potency, µM, without a hit: max response, negative = inhibition, actives largely listed as inhibitors;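 also: plate controls were enzyme without inhibitor for no effect and buffer without enzyme for full effect; nearly all actives have a fitted effect of over 40% in size; top concentration of the series not given in the record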
Target sequence (P25779 123-467 limits assumed): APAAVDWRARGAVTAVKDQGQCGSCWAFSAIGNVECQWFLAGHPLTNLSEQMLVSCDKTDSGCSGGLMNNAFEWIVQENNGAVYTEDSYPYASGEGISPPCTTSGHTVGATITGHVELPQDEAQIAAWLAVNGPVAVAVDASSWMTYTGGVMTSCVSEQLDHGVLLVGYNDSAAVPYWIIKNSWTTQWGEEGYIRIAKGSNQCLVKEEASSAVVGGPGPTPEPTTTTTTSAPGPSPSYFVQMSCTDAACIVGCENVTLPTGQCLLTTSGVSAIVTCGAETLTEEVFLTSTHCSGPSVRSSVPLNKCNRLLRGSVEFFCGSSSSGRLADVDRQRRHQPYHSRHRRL
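Detergent-free condition (0.00005% Triton X-100) in acetate buffer pH 5.5 with DTT. 1.5 nM enzyme and compound were pre-mixed 15 min, then 2 uM Z-FR-AMC substrate added; reaction progress from fluorescence change between first and third reads (60 s).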
NS1 function inh = inhibitors of influenza NS1 protein function; S. cerevisiae slowed by influenza A NS1, growth recovery by OD600; Potency, µM (series often up to 46.1 µM), for inactives: top-dose activity, positive = more growth; 0.4% of 270,000 active; AID 2326; active means well fitted rising curve with a large enough effect; inconclusive means small, poorly fitted or top-dose-only effect; inactive means no such curve, though single readings can be large or run the other way; also: nearly all actives have a fitted effect of over 50% in size
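In this qHTS, NS1 from influenza A is expressed in budding yeast, where it slows growth. Cells are switched from glucose to 2% galactose medium (pH 6.0, -URA), treated with compound, and growth recovery is read at OD600.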
Cruzain Triton = blocks cruzain activity in presence of Triton detergent; AID 1478; P25779; purified cruzain, Z-FR-AMC fluorescence, 0.01% Triton; Potency, µM, inactives show max response, negative = inhibition, most hits filed as inhibitors; 0.43% of 200,000 active;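 also: plate controls were neutral wells for no effect and buffer without enzyme for full effect; nearly all actives have a fitted effect of over 40% in size; top concentration of the series not given in the record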
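Enzyme 1.5 nM, Z-FR-AMC 2 uM, NaOAc 100 mM pH 5.5, DTT 5 mM, Triton X-100 0.01%; 15 min RT compound preincubation; kinetic ex360/em450, 60 s delta.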
The depositor's hits bear a star; ? = inconclusive; / = no result given; & = joins results of further samples; [ ] = another dose, or the depositor's remark. Unless noted, calls follow the shape of the dose curve; as a rule, active = well fitted curve in the direction sought with a large enough effect; inconclusive = small, poorly fitted or top-dose-only effect, or another doubt; inactive = no such curve, though single readings can be large; an effect the other way counts as inactive or inconclusive. Potency is read from the fitted curve at half-maximal effect.

SMILES	Marburg entry inh	RE007 growth inh	Lassa entry inh	SARS PLpro yeast	StopGo reporter	Cruzain noTriton	NS1 function inh	Cruzain Triton
COc1cccc(OCCOCC(O)CN2CCN(Cc3ccc(Cl)cc3)CC2)c1 (stereo unspecified)	?	20%	-28%	4%	0%	0%	2%	-2.0%
CC1(C)Cc2c(cnn2-c2ccccc2)C(NC(=O)c2ccoc2)C1 (stereo unspecified)	-2%	32%	11%	4%	-21%	/	5%	/
O=C(CSc1ncnc2c1cnn2-c1ccccc1)Nc1ccccc1	?	-12%	-25%	-1%	/	?	-16%	2.0%
Cc1ccc2cc(/C=N/NC(=O)c3ccccc3[N+](=O)[O-])c(Cl)nc2c1	?	15%	-12%	1%	-17%	/	/	/
CCOC(=O)C1(CC2CC2)CCN(Cc2ccc(C(=O)OC)cc2)CC1	/	-13%	/	1%	0%	/	-1%	/
CC(C)NC(=O)C(=O)NNC(=O)C12CC3CC(CC(C3)C1)C2	?	-25%	18%	-30%	-15%	1%	-2%	-1.7%
O=C(NCc1ccco1)c1cc(S(=O)(=O)NC2CC2)ccc1Br	-3%	-8%	15%	-3%	-5%	/	/	/
COc1ccc(CC(=O)N2CCN(c3ccccc3)CC2)cc1OC	-4%[46.1 µM]	4%	26%[46.1 µM]	0%	-17%	/	-5%	/
O=C(CNC(=O)c1ccco1)Nc1cc(Cl)ccc1N1CCOCC1	?	-4%	5%	9%	3%	4%	?	2.3%
O=C(CSc1ncnc2sc3c(c12)CCCCC3)NCc1ccco1	?	-3%	?	-12%	5%	2%	-7%	-12%
O=C(CNC(=O)c1ccccc1Br)NNC(=O)c1cccs1	22%	31%	?	1%	-3%	/	/	/
O=C(c1ccccc1SCc1ccccc1)N1CCCCCC1	?	0%	-6%	-1%	7%	/	/	/
Cc1cc(=O)oc(C)c1C(=O)Nc1ccccc1F	3%[46.1 µM]	-5%	9%	0%	2%	/	1%	/
COc1ccc(NC(=O)CN2CCN(C3c4ccccc4-c4ccccc43)CC2)cc1	?	1%	5%	-13%	-15%	-4%	-6%	-9.3%
O=c1[nH]c2ccccc2n2cnnc12	9%[46.1 µM]	-7%	0%	1%	4%	/	/	/
COc1ccc([N+](=O)[O-])cc1N(CC(O)CN(CC(C)C)CC(C)C)S(=O)(=O)c1ccc(C)cc1 (stereo unspecified)	?	-13%	-3%	0%	-15%	/	-4%	/
COc1ccc(/C=C(\C#N)C(=O)OCC(=O)Nc2c(C)cccc2C(C)C)cc1	?	6%	4%	24%	-12%	-13%	-3%	-6.4%
O=C(CN1CCN(Cc2ccc(Cl)cc2)C1=O)NCc1ccc(F)cc1	/	/	0%[46.1 µM]	/	-3%	-7%	/	0.7%
CC(C)c1ccc(NC(=O)c2cccn2-c2nnc(N3CCCCC3)s2)cc1	/	/	-15%[46.1 µM]	/	-11%	0%	/	1.8%
C=C(C)CN(CC)c1ccc(N2C(=O)CCCC2=O)cc1[N+](=O)[O-]	1%[46.1 µM]	33%	3%[46.1 µM]	0%	-21%	/	8%	/
Cc1ccc(C)c(NS(=O)(=O)c2cc(C(=O)Nc3ccccc3-c3ccccc3)ccc2C)c1	?	-10%	?	-3%	9%	?	?	2.3%
CCCCNC(=O)N1CCOCCOCCN(C(=O)NCCCC)CCOCCOCC1	20%&20%&20%	-3%	10%	2%	0%	8%	0%	1.4%
N#CCCn1cc(C(=O)Nc2ccc([N+](=O)[O-])cc2)c(-c2ccccc2)n1	/	-8%	/	0%	-1%	/	?	/
COc1ccc(OC)c(Nc2c3c(nc4ccccc24)CCC3)c1	2.8µM*	-8%	?	1%	-24%&-25%	-14%	0%	-8.9%
CN(C)c1ccc(C(CNS(=O)(=O)c2ccc(Br)cc2)N2CCCC2)cc1 (stereo unspecified)	/	/	-18%[46.1 µM]	/	-15%	9%	/	-0.2%
NS(=O)(=O)c1cccc(NS(=O)(=O)c2ccc3ccccc3c2)c1	/	1%	/	-2%	14%	/	-1%	/
CC(C)c1nc2cc(C(=O)N3CCNC(=O)C3c3cccc(F)c3)ccc2o1 (stereo unspecified)	/	0%	/	-5%	0%	/	-16%	/
CN(C)S(=O)(=O)N1CCC(Oc2ccc(C(=O)NC3Cc4ccccc4C3)cc2)CC1	/	2%	/	7%	?	/	?	/
COc1cc(NC(=O)CN2C(=O)C(=O)N(CC(C)C)C2=O)cc(OC)c1	7%	-22%	8%	-2%	0%	/	/	/
CC1CN(C(=O)CN2C(=O)c3ccccc3S2(=O)=O)CC(C)O1 (stereo unspecified)	?	5%	13%	1%	65%[activator]	-4%	2%	2.3%
COc1ccc(C=C2C(=O)c3ccccc3C2=O)cc1O	26%[46.1 µM]	?	0%[46.1 µM]	-3%	17%	/	/	/
CC1(C)Cc2c(sc3c2c(=N)n(Cc2ccco2)c(=O)n3CC(=O)Nc2ccccc2)CO1	8%	-19%	-12%	-4%	-16%	-1%	/	-9.7%
Cc1nn(-c2nc3ccccc3s2)c(N)c1-c1ccc(Cl)cc1	28%[46.1 µM]	4%	29%	-16%	61%[activator]	?	-16%	-2.2%
CCOc1ccc(-n2nnnc2-c2nc3ccccc3s2)cc1	?	-12%	?	12%	?	6%	9%	-1.5%
Cc1nn(Cc2ccc(C(=O)Nc3ccc(C(=O)OC(C)C)cc3)o2)c(C)c1Cl	?	1%	?	-5%	/	11%	0%	-19%
C=CCN(CC=C)C(=O)CN1C(=O)NC(C)(c2ccc3cc(OC)ccc3c2)C1=O (stereo unspecified)	4%[46.1 µM]	0%	-12%	2%	-1%	/	-2%	/
O=C(Nc1ccccc1Cl)c1ccc2nc(N3CCOCC3)sc2c1	/	11%	/	-1%	10%	/	5%	/
CCCS(=O)(=O)c1nc(S(=O)(=O)c2ccc(C)cc2)c(N2CCC(C(N)=O)CC2)s1	/	6%	/	-1%	20%	/	-11%	/
COc1cccc(NC(=O)CCC(=O)N2CC(C)Oc3ccc(C)cc32)c1 (stereo unspecified)	/	-6%	/	-2%	0%	/	-20%	/
COC(=O)c1c(NC(=O)C(=O)N2CCOCC2)sc2c1CCCC2	/	-6%	/	0%	-19%	/	-17%	/

Sorted by heavy-atom count (smallest number first): nine of the compounds above
SMILES	Marburg entry inh	RE007 growth inh	Lassa entry inh	SARS PLpro yeast	StopGo reporter	Cruzain noTriton	NS1 function inh	Cruzain Triton
COc1ccc(C=C2C(=O)c3ccccc3C2=O)cc1O	26%[46.1 µM]	?	0%[46.1 µM]	-3%	17%	/	/	/
CC1CN(C(=O)CN2C(=O)c3ccccc3S2(=O)=O)CC(C)O1 (stereo unspecified)	?	5%	13%	1%	65%[activator]	-4%	2%	2.3%
COC(=O)c1c(NC(=O)C(=O)N2CCOCC2)sc2c1CCCC2	/	-6%	/	0%	-19%	/	-17%	/
O=C(Nc1ccccc1Cl)c1ccc2nc(N3CCOCC3)sc2c1	/	11%	/	-1%	10%	/	5%	/
COc1cc(NC(=O)CN2C(=O)C(=O)N(CC(C)C)C2=O)cc(OC)c1	7%	-22%	8%	-2%	0%	/	/	/
COc1cccc(NC(=O)CCC(=O)N2CC(C)Oc3ccc(C)cc32)c1 (stereo unspecified)	/	-6%	/	-2%	0%	/	-20%	/
Cc1nn(Cc2ccc(C(=O)Nc3ccc(C(=O)OC(C)C)cc3)o2)c(C)c1Cl	?	1%	?	-5%	/	11%	0%	-19%
C=CCN(CC=C)C(=O)CN1C(=O)NC(C)(c2ccc3cc(OC)ccc3c2)C1=O (stereo unspecified)	4%[46.1 µM]	0%	-12%	2%	-1%	/	-2%	/
CC1(C)Cc2c(sc3c2c(=N)n(Cc2ccco2)c(=O)n3CC(=O)Nc2ccccc2)CO1	8%	-19%	-12%	-4%	-16%	-1%	/	-9.7%

Next part:
SMILES	Marburg entry inh	RE007 growth inh	Lassa entry inh	SARS PLpro yeast	StopGo reporter	Cruzain noTriton	NS1 function inh	Cruzain Triton
C/C(=C\c1ccccc1)C(=O)NCCN1CCOCC1	/	-1%	/	0%	5%	/	2%	/
CC(=O)Nc1ccc(NC(=O)c2c(C)nn(Cc3ccccc3)c2Cl)cc1	?	0%	-3%[46.1 µM]	2%	15%	/	-2%	/
CCN(CC)CC(=O)N1c2ccccc2Sc2ccc(Cl)cc21	?	1%	-29%	-3%	-16%	2%	0%	1.0%
Cc1noc(C)c1S(=O)(=O)N(CC(=O)N1CCc2ccccc21)c1ccc(C(C)C)cc1	/	12%	/	-6%	?	?	-49%	-6.5%
Cc1c(CC(=O)O)c(=O)oc2c(C)c(OCc3nn[nH]n3)ccc12	7%[46.1 µM]	6%	5%	0%	21%	/	-1%	/
COc1ccc(Br)cc1S(=O)(=O)N(CC(=O)N1CCOCC1)c1ccccc1	10%	2%	-13%	1%	/	?	-8%	4.4%
COc1ccc(CN(C(=O)c2nsc(Cl)c2Cl)C(C(=O)NC2CCCC2)c2ccc(C)cc2)cc1 (stereo unspecified)	?	10%	16µM*	-37%	13%	-8%	15%	-4.0%
O=C(O)c1cc2[nH]c3c(c2cc1Cl)CCCC3	12%[46.1 µM]	65%	6%[46.1 µM]	-3%	5%	/	-92%	/
